Screens as filed in PubChem.
Beta2AR agonist: activates human beta-2 adrenergic receptor causing internalization; Am2.2-beta2AR cells, FAP receptor internalization, flow cytometry; reference of the scale not given here; hit rate 0.43% among 340,000; response, % (concentration not given with the values);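 active = response above a set limit, near 3 SD of response in nonfluorescent compounds, cut at about 42% in these data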;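 note: stock transfer was 100 nL into about 11 µL; a reference agonist was the positive control; negative values mostly stem from fluorescent compounds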
Target sequence (P07550 whole entry, looked up): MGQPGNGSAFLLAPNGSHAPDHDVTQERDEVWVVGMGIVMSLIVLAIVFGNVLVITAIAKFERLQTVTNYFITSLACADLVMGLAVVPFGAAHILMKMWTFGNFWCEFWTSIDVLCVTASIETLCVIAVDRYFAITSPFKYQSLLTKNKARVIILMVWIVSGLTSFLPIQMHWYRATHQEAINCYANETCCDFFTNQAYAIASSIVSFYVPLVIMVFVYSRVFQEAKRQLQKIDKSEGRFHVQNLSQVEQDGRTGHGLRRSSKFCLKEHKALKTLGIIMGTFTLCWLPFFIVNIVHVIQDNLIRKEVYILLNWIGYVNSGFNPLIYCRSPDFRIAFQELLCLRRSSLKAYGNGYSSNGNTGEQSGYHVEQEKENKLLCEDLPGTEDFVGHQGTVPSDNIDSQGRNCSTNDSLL
LANA-H2B inh: blocks KSHV LANA binding to histone H2A/H2B; hit rate 0.6% among 320,000; inhibition, % (test concentration not listed); cell-free LANA-H2A/H2B peptide, fluorescence polarization; Q9QR71; in the data active = inhibition mostly above about 10%, no sharp cut-off; inactive = mostly below about 6.7%;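 note: stock transfer was 7.5 nL into about 10 µL; 0% = median of vehicle wells and 100% = median of positive control wells; one replicate is shown; the record names a cut of 25% in any replicate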
T cruzi repl: T. cruzi replication inhibition; T. cruzi beta-gal in NIH3T3, luminescence, 90 h; inhibition, % (concentration not given with the values); hit rate 1.4% among 300,000;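 active = mean inhibition across valid replicates above about 55%, limit read from the data; inconclusive = mean below that limit but half or more replicates reach it; inactive = mean below it, under half of replicates reach it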;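 note: signal also drops with host cell toxicity which is not excluded here; 0% = plate median of DMSO wells and 100% = zero luminescence signal; higher percent means less beta-gal luminescence so fewer parasites; stock transfer was 50 nL into about 50 µL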
UCH37 inh: human UCH37 deubiquitinating enzyme inhibition | hit rate 0.33% among 330,000 | AID 588478 | inhibition, % (test concentration not listed) | purified proteasome/UCH37, Ub-AMC cleavage fluorescence;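 active = mean of two replicates above 20%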;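 note: 0% = compound-free wells with enzyme and 100% = wells lacking proteasome; stock transfer was 100 nL into about 20 µL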
Target sequence (Q9Y5K5 whole entry, looked up): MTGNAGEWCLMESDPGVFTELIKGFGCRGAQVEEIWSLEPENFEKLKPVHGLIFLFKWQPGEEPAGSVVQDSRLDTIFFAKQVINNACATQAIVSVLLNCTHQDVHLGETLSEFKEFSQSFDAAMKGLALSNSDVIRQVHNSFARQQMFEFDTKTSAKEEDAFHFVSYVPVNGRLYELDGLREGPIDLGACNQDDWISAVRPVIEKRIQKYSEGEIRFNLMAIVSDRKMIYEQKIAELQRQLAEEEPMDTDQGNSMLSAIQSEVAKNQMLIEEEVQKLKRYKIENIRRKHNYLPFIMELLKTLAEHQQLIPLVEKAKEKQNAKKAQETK
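Test system – human UCH37 enzyme supplied as purified proteasome complex · Incubation – 30 min preincubation with enzyme, 25 min cleavage at room temperature · Detection – AMC fluorescence from Ub-AMC cleavage, excitation 355 nm, emission 460 nm · Benchmarks – no-proteasome wells (full inhibition) and compound-free wells (no inhibition)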
Beta cell apopt: beta cell apoptosis inhibition; INS-1E cytokine-induced death, ATP luminescence, 48 h; percent of positive-control rescue, neutral wells zero; protection from apoptosis, % (test concentration not listed); AID 435005; hit rate 0.8% among 300,000;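 active = all replicates at 75% or more, or half of them and the mean; inconclusive = half reach 75% but not the mean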;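 note: 0% = cytokine-treated negative control wells and 100% = positive control rescue; higher means more ATP so stronger rescue from cytokine killing; wells of about 40 µL received 100 nL stock; the first replicate is given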
RanGTP-Impb inh: inhibitors of RanGTP-importin-beta interaction, primary screen, biochemical, FRET, CFP-Ran, YFP-importin-beta, homogeneous; inhibition, % (concentration not given with the values); AID 2216; cell-free CFP-Ran/YFP-importin-beta FRET ratio; hit rate 1.1% among 300,000;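 active = most replicates above 15%; inconclusive = exactly half above 15%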;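 note: 0% = DMSO wells and 100% = Ran loaded with GDP instead of GTP; wells of about 40 µL received 100 nL stock; the first replicate is given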
Calb FLC: affects C. albicans growth with fluconazole; hit rate 0.57% among 300,000; C. albicans CaCi-2 (fluconazole-resistant clinical isolate) + fluconazole, Alamar Blue growth, 48 h; growth inhibition, % (concentration not given with the values);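 active = most replicates above 75%; inconclusive = exactly half above 75%; inactive = most below 75%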;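 note: all wells also contain fluconazole at 8 µg/ml as a sub-toxic cotreatment; 0% = median of DMSO wells and 100% = median of geldanamycin control wells; wells of about 8 µL received 7.5 nL stock; the first replicate is given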
Bfl-1 A1 inh: inhibitors of the anti-apoptotic protein A1, read as caspase activation; MEF A1-2A-BIM cells, Caspase-Glo 3/7 luminescence, 3 h; percent of clofoctol response, vehicle zero; caspase activation, % (test concentration not listed); hit rate 0.066% among 330,000;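 active = over half of replicate activation scores above 10%, or exactly half above 10 with the replicate mean above 10; inconclusive = replicate mean below 10 yet half the replicates above 10; inactive = over half of replicates below 10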;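 note: wells of about 30 µL received 50 nL stock; many hits fall short of the cut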
Active calls of the source: *; ? = inconclusive; · = no result given. Hits appear at their usual frequency. Share with any hit: about 4.3%.

1) Cc1cc(-c2nnc(SCC(=O)Nc3nccs3)o2)no1
2) N#Cc1ccc(-c2csc(NC3=NCCCCC3)n2)cc1
3) CC1=CCC2C(=O)N(c3cccc(C(=O)Nc4ccc(Cl)cc4)c3)C(=O)C2C1 (stereo not given)
4) CC(=O)CCSc1ncnc2sc(-c3ccccc3)cc12
5) CCCNS(=O)(=O)c1ccc(CCC(=O)N2CCC(C)CC2)cc1

compound no.,1,2,3,4,5
T cruzi repl,-10,-7,-2,-4,-7
Bfl-1 A1 inh,1.2,·,-1.7,-1.9,0.2
Beta cell apopt,-2,·,·,-11,2
UCH37 inh,0.3,-2.0,2.6,4.7,2.8
Calb FLC,-4,?,14,-25,-10
Beta2AR agonist,-10,-9,18,7,0
RanGTP-Impb inh,-4.4,3.0,-0.2,3.0,-3.5
LANA-H2B inh,0.4,·,5.6,0.1,1.2

6) CCn1nccc1C(=O)Nc1ccc(Cl)c(Cl)c1
7) CCOC(=O)c1sc(=S)n(C)c1NC(=O)c1ccccc1C
8) CC(=O)c1c(C)oc2ccc(NS(=O)(=O)c3ccc(F)cc3C)cc12
9) CC(C)(C)c1ccc(C(=O)NC(=S)N2CCCC2)cc1
10) O=C(O)C1CCN(C(=O)c2cc(F)cc3c2OCOC3)CC1

compound no.,6,7,8,9,10
T cruzi repl,12,-4,4,19,-12
Bfl-1 A1 inh,-3.9,0.5,-0.6,0.3,0.2
Beta cell apopt,9,-6,21,1,-13
UCH37 inh,7.2,7.9,3.0,2.4,2.8
Calb FLC,31,-3,-4,5,-3
Beta2AR agonist,-11,5,1,2,3
RanGTP-Impb inh,-1.4,-3.2,?,6.4,-0.8
LANA-H2B inh,1.2,5.3,-2.1,0.8,1.3

11) COc1ccc(OC)c(Cc2nnc(CCC(=O)N3CCC(N4CCCCC4)CC3)o2)c1
12) COc1ccccc1CN1CCC(n2nccc2NC(=O)CCOc2ccccc2)CC1
13) O=C(NCc1ccc(F)cc1F)c1cc(COc2c(F)cccc2F)on1
14) COc1cc2[nH]c(=S)n(N(C(C)=O)C(C)=O)c(=O)c2cc1OC
15) COCCn1c(C)cc(C(=O)CSc2nnc3ccccn23)c1C

compound no.,11,12,13,14,15
T cruzi repl,-5,11,14,-4,-3
Bfl-1 A1 inh,0.0,0.7,-1.3,0.6,-5.2
Beta cell apopt,-4,-3,3,0,4
UCH37 inh,-1.3,0.8,0.1,-0.2,7.0
Calb FLC,-1,-21,?,3,0
Beta2AR agonist,-6,5,2,0,-1
RanGTP-Impb inh,7.3,-1.3,-3.1,1.4,-4.1
LANA-H2B inh,-2.9,4.3,·,-2.4,-4.6

16) O=C(NC(NC(=S)Nc1cccc(Cl)c1)C(Cl)(Cl)Cl)OCc1ccccc1 (stereo not given)
17) Cc1ccc2c(c1)N(CC(=O)N1CCc3ccccc3C1)C(=O)CO2
18) O=C(NCc1ccccc1F)C1CCCN1C(=O)NC1CCCCC1 (stereo not given)
19) CC(/C=C/c1ccc(N(C)C)cc1)=N\N=C(/N)SC1CC(=O)N(c2ccc(C(=O)O)cc2)C1=O (stereo not given)
20) NC(=O)COC(=O)c1cc(=O)[nH]c2ccc(S(=O)(=O)Nc3ccc(F)cc3)cc12

compound no.,16,17,18,19,20
T cruzi repl,7,-4,14,-12,-2
Bfl-1 A1 inh,-0.4,0.4,0.1,-2.0,-1.4
Beta cell apopt,19,-3,1,-3,-3
UCH37 inh,5.1,4.8,4.8,·,4.7
Calb FLC,-18,7,-15,-4,0
Beta2AR agonist,1,6,-2,-39,8
RanGTP-Impb inh,-3.0,2.6,0.8,-19,0.8
LANA-H2B inh,5.4,6.5,0.1,-11,0.1

21) Cc1cc(C)cc(NC(=O)CN2CCN(C(=O)c3cccs3)CC2)c1
22) CCN(CC)CCCN(C)C(=O)Cn1nc(Cc2ccncc2)c2ccccc2c1=O
23) Cc1ccc(N2C(=O)c3ccccc3C2O)nc1 (stereo not given)
24) Cc1cc(C(=O)NNc2ccc(C)c(C)c2)no1
25) CC1/C(=C\c2ccc(Cl)cc2)C(=O)C2CC1C2(C)C (stereo not given)

compound no.,21,22,23,24,25
T cruzi repl,·,-9,-8,·,-10
Bfl-1 A1 inh,-0.2,0.0,-7.4,1.3,-1.2
Beta cell apopt,-5,-12,46,-4,1
UCH37 inh,2.7,2.7,·,1.7,5.3
Calb FLC,·,2,-1,-5,-35
Beta2AR agonist,6,-8,·,-2,0
RanGTP-Impb inh,·,-1.4,4.8,5.5,0.0
LANA-H2B inh,-6.2,6.9,7.4,0.4,-1.7

26) O=C(Nc1cccc(S(=O)(=O)N2CCCCC2)c1)c1ccc(N2CCCC2=O)cc1
27) CN(Cc1nccn1C)C(=O)CC1C(=O)NCCN1Cc1cccc(Oc2ccccc2)c1 (stereo not given)
28) CCOC(=O)c1c(CN2CCN(C)CC2)n(C)c2cc(Br)c(OC)cc12
29) CN(C)/C=N/c1nccc(-c2cccs2)n1
30) O=C(/C=C/c1cccnc1)c1cccc(O)c1
31) O=C(CNC(=O)c1ccc2c(c1)OCO2)N/N=C(Br)/C=C/c1ccccc1
32) Cn1cc(CN2CCN(c3ccccc3)CC2)c2ccccc21

compound no.,26,27,28,29,30,31,32
T cruzi repl,·,5,40,-3,-3,-4,31
Bfl-1 A1 inh,0.7,0.2,0.6,-0.3,-0.2,0.6,0.6
Beta cell apopt,-5,-2,8,-6,0,-10,-4
UCH37 inh,3.7,-0.8,0.0,·,8.2,·,-0.1
Calb FLC,·,5,-5,2,-16,11,17
Beta2AR agonist,2,-18,24,-2,6,-7,6
RanGTP-Impb inh,·,4.2,-2.4,5.3,-2.4,1.9,-2.9
LANA-H2B inh,-2.2,2.2,-2.6,·,3.5,1.3,13*

Gathered by group: the entries above containing a halogen (11)
3) CC1=CCC2C(=O)N(c3cccc(C(=O)Nc4ccc(Cl)cc4)c3)C(=O)C2C1 (stereo not given)
6) CCn1nccc1C(=O)Nc1ccc(Cl)c(Cl)c1
8) CC(=O)c1c(C)oc2ccc(NS(=O)(=O)c3ccc(F)cc3C)cc12
10) O=C(O)C1CCN(C(=O)c2cc(F)cc3c2OCOC3)CC1
13) O=C(NCc1ccc(F)cc1F)c1cc(COc2c(F)cccc2F)on1
16) O=C(NC(NC(=S)Nc1cccc(Cl)c1)C(Cl)(Cl)Cl)OCc1ccccc1 (stereo not given)
18) O=C(NCc1ccccc1F)C1CCCN1C(=O)NC1CCCCC1 (stereo not given)

compound no.,3,6,8,10,13,16,18
T cruzi repl,-2,12,4,-12,14,7,14
Bfl-1 A1 inh,-1.7,-3.9,-0.6,0.2,-1.3,-0.4,0.1
Beta cell apopt,·,9,21,-13,3,19,1
UCH37 inh,2.6,7.2,3.0,2.8,0.1,5.1,4.8
Calb FLC,14,31,-4,-3,?,-18,-15
Beta2AR agonist,18,-11,1,3,2,1,-2
RanGTP-Impb inh,-0.2,-1.4,?,-0.8,-3.1,-3.0,0.8
LANA-H2B inh,5.6,1.2,-2.1,1.3,·,5.4,0.1

20) NC(=O)COC(=O)c1cc(=O)[nH]c2ccc(S(=O)(=O)Nc3ccc(F)cc3)cc12
25) CC1/C(=C\c2ccc(Cl)cc2)C(=O)C2CC1C2(C)C (stereo not given)
28) CCOC(=O)c1c(CN2CCN(C)CC2)n(C)c2cc(Br)c(OC)cc12
31) O=C(CNC(=O)c1ccc2c(c1)OCO2)N/N=C(Br)/C=C/c1ccccc1

compound no.,20,25,28,31
T cruzi repl,-2,-10,40,-4
Bfl-1 A1 inh,-1.4,-1.2,0.6,0.6
Beta cell apopt,-3,1,8,-10
UCH37 inh,4.7,5.3,0.0,·
Calb FLC,0,-35,-5,11
Beta2AR agonist,8,0,24,-7
RanGTP-Impb inh,0.8,0.0,-2.4,1.9
LANA-H2B inh,0.1,-1.7,-2.6,1.3
